# FGF22 binding = shifts melting point of recombinant human FGF22 | Q9HCT0 | recombinant FGF22 thermal shift, SYPRO orange fluorescence; percent of sucrose octasulfate shift, DMSO zero | calls only at 9.99 µM | 340,000 compounds, 1.5% hits | AID 651658;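 active means melting point raised past a set limit in the mean and every replicate; inconclusive means no clear call; three in four hits are not shown here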
# Target sequence (Q9HCT0 whole entry, looked up): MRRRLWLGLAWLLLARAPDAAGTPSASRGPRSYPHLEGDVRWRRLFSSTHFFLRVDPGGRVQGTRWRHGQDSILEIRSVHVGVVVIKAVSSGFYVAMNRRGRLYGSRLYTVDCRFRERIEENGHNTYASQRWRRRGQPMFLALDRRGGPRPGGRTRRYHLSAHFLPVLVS
# rRNA inh HTS = inhibitors of bacterial rRNA selective over humanized ribosomes. E. coli WT GFP vs humanized-ribosome RFP mutants, fluorescence, 24 h; stronger effect = lower value; DMSO median 0, no signal -100. GFP signal change (wild-type ribosome), % (concentration not given with the values). 350,000 compounds, 1.6% hits. AID 720706;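 active means significant combined selectivity score with lowered wild-type GFP, culture density cut under 30%, mutant RFP and density less affected; inactive means any of these conditions unmet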; further: one replicate is shown; some compounds called inactive have numbers as strong as hits
# Calb FLC = affects C. albicans growth with fluconazole | C. albicans CaCi-2 (fluconazole-resistant clinical isolate) + fluconazole, Alamar Blue growth, 48 h | growth inhibition, % (concentration not given with the values) | 300,000 compounds, 0.57% hits | AID 1979;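 active means most replicates above 75%; inconclusive means exactly half above 75%; inactive means most below 75%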;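 further: all wells also contain fluconazole at 8 µg/ml as a sub-toxic cotreatment; 0% = median of DMSO wells and 100% = median of geldanamycin control wells; wells of about 8 µL received 7.5 nL stock; the first replicate is given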
# RanGTP-Impb inh = disruptors of Ran-importin-beta complex formation – biochemical, FRET, CFP-Ran, YFP-importin-beta, homogeneous, primary screen | cell-free CFP-Ran/YFP-importin-beta FRET ratio | 300,000 compounds, 1.1% hits | inhibition, % (no concentration beside the values);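 active means most replicates above 15%; inconclusive means exactly half above 15%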;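 further: 0% = DMSO wells and 100% = Ran loaded with GDP instead of GTP; wells of about 40 µL received 100 nL stock; the first replicate is given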
# MLL AF4-AF9 inh = MLL-AF4/AF9 protein interaction inhibition | P42568 | AlphaScreen, biotin-AF4 peptide binding to FLAG-AF9 | inhibition, % at 10 µM | 350,000 compounds, 0.47% hits | AID 651704;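 active means every replicate reaching a set inhibition limit, whatever the replicate mean, cut at about 25% in these data; inconclusive means mean inhibition reaches that limit but some replicates miss it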;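 further: 0% = plate neutral control median and 100% = total signal loss; the record names both 10 and 1 µM as test concentration; the first replicate is given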
# Target sequence (P42568 whole entry, looked up): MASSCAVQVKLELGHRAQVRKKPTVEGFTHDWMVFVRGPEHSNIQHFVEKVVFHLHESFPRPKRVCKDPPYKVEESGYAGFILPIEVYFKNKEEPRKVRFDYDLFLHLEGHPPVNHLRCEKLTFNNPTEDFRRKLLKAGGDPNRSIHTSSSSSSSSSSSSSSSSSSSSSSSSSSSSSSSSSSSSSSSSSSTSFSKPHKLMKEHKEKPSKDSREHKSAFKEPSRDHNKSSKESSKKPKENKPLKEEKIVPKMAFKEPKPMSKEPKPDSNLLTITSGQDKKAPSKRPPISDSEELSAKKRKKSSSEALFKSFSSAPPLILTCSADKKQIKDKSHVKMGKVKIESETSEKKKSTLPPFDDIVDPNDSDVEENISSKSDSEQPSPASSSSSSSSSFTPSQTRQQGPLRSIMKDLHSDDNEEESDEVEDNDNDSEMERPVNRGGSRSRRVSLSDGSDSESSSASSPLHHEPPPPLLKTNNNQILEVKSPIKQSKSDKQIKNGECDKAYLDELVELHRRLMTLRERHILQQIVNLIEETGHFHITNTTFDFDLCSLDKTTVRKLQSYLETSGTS
# ALR inh = blocks human ALR sulfhydryl oxidase activity; P55789; purified ALR, DTT oxidation, H2O2 HRP-luminol luminescence; inhibition, % (test concentration not listed); 290,000 compounds, 3.8% hits; AID 485317;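 active means mean and each replicate at 75% or more; inconclusive means only one of the two met; inactive means neither met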;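 further: stock transfer was 7.5 nL into about 7.5 µL; 0% = neutral wells and 100% = wells with inactivated enzyme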
# Target sequence (P55789 whole entry, looked up): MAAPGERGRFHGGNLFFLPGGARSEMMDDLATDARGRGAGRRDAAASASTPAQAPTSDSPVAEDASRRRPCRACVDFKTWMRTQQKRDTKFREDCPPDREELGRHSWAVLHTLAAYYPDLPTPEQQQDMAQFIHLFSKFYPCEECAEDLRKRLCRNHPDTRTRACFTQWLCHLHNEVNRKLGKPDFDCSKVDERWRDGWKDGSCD
# T cruzi repl = T. cruzi replication inhibition | T. cruzi beta-gal in NIH3T3, luminescence, 90 h | inhibition, % (concentration not given with the values) | 300,000 compounds, 1.4% hits | AID 1885;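 active means mean inhibition across valid replicates above about 55%, limit read from the data; inconclusive means mean below that limit but half or more replicates reach it; inactive means mean below it, under half of replicates reach it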;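 further: signal also drops with host cell toxicity which is not excluded here; 0% = plate median of DMSO wells and 100% = zero luminescence signal; higher percent means less beta-gal luminescence so fewer parasites; stock transfer was 50 nL into about 50 µL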
# Beta cell apopt = blocks beta cell apoptosis; INS-1E cytokine-induced death, ATP luminescence, 48 h; percent of positive-control rescue, neutral wells zero; protection from apoptosis, % (no concentration beside the values); 300,000 compounds, 0.8% hits; AID 435005;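 active means all replicates at 75% or more, or half of them and the mean; inconclusive means half reach 75% but not the mean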;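 further: 0% = cytokine-treated negative control wells and 100% = positive control rescue; higher means more ATP so stronger rescue from cytokine killing; wells of about 40 µL received 100 nL stock; the first replicate is given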
# rRNA inh HTS OD600 = recorded beside rRNA inh HTS, whose call it bears; OD600 change, %; measured here: OD600 growth;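 optical density of the mix in the first replicate; 0 = DMSO median and -100 = no signal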
# rRNA inh HTS RFP = second read-out of rRNA inh HTS, no call of its own (marks repeat the call); RFP signal change, %; measured here: RFP humanized mutant strains;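 first replicate; 0 = DMSO median and -100 = no signal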
# An asterisk follows results filed as active; i = inactive; ? = inconclusive; . = no result given; + = active, no number; & = joins results of further samples.
SMILES	FGF22 binding	rRNA inh HTS	rRNA inh HTS OD600	rRNA inh HTS RFP	Calb FLC	RanGTP-Impb inh	MLL AF4-AF9 inh	ALR inh	T cruzi repl	Beta cell apopt
Cc1c(NC(=S)N/C(=N/S(=O)(=O)c2ccc(Cl)cc2)c2ccccc2)c(=O)n(-c2ccccc2)n1C	i	-1	0	12	11	0.9	-20	0	0	-5
Cc1cccc(Cc2c(C)nc3c(C(=O)NCc4ccco4)cnn3c2C)c1	.	.	.	.	29	3.6	.	10	16	-1
CCOC(=O)NC(NCCc1ccccc1)(C(F)(F)F)C(F)(F)F	.	.	.	.	6	4.4	.	-3	-19	6
CC(C)NC(=O)N(C)C[C@H]1Oc2c(NC(=O)Nc3ccccc3)cccc2C(=O)N([C@H](C)CO)C[C@@H]1C	i	3&0	6&-8	-0.1&-14	.	.	-0.8&-1.1	1	.	3
CCSc1nc2sc3c(c2c(=O)[nH]1)CC(C)(C)OC3	i	-4	2	-9.3	-9	?	-1.7	5	-6	.
CN1CCSc2ccc(C(=O)NCc3ccccc3F)cc21	i	-1	9	-2.3	5	-2.2	3.6	?	3	2
CCN(CC(=O)Nc1ccccc1C(F)(F)F)C(=O)Cc1sc(C)nc1-c1ccc(F)cc1	i	-5	-8	1.3	-3	2.3	-2.4	-13	-3	.
CCCCn1c(N)c(N(CC(C)C)C(=O)CCS(=O)(=O)c2ccc(C)cc2)c(=O)[nH]c1=O	i	9	17	1.6	-5	-1.3	-1.8	2	-13	-7
CCc1nnc(NC(=O)CN2CCN(S(C)(=O)=O)CC2)s1	i	2	8	0.8	-1	0.8	0.7	-17	-12	-5
Fc1ccc(-c2nnc(-c3ccc(Cl)cc3)o2)cc1	.	.	.	.	-27	-5.3	.	?	-10	7
COc1ccc(CC(=O)NN2C(=O)c3ccccc3C2=O)cc1	.	.	.	.	-6	-2.8	.	3	10	1
O=C(Cc1csc(-c2ccccc2)n1)NCc1ccccc1F	i	-9	1	8.9	-92	1.2	-1.3	-1	6	0
Nc1c(C(=O)NCc2ccc3c(c2)OCO3)nnn1Cc1cccc(F)c1	i	-1	7	-4.6	-13	-0.5	-33	-6	23	-6
COc1ccc(NC(=O)c2cc(-c3cccs3)on2)c(OC)c1	i	7	15	0.6	-3	?	34*	0	2	10
CC(C)C[C@H](NC(=O)C1CC(=O)N(c2ccc(F)cc2)C1)C(=O)N1CCCCC1 (some centres undefined)	i	-1	-3	-3.8	-3	-0.6	0.1	1	-20	-4
O=C(c1ccco1)N1CCN(S(=O)(=O)Cc2ccccc2Cl)CC1	i	5	-1	-9.5	3	-2.0	-2.4	-5	-4	7
O=C(CCNS(=O)(=O)c1cccc2nonc12)NCc1cccs1	.	.	.	.	5	1.3	.	-5	2	-4
CCCCCN1C=CC(=C2C(=O)c3ccccc3C2=O)C=C1	i	12	11	4.2	17	-7.9	-13	10	16	39
CCCn1c(=O)c2c(nc3n2CCCN3CCc2ccc(OC)c(OC)c2)n(C)c1=O	i	-4	0	1.1	-8	2.5	4.1	7	5	4
Cn1c(=O)c2c(SCC(=O)NCC3CCCO3)nc(CC(C)(C)C)nc2n(C)c1=O (centres undefined)	i	-15	-8	2.7	-3	2.2	0.0	0	-15	6
O=C(Nc1cccc(S(=O)(=O)N2CCOCC2)c1)[C@@H]1CCCN1S(=O)(=O)c1ccc(Cl)cc1	.	.	.	.	0	-1.2	.	-5	13	-8
O=S(=O)(CCc1nc2ccccc2o1)c1ccc2ccccc2c1	.	.	.	.	10	0.3	.	.	-12	2
COC(=O)c1ccc(C(=O)NN)cc1	i	4	5	1.5	-2	0.6	-1.8	-6	-5	-1
COC(=O)c1c(-c2ccc(C)cc2)csc1NC(=O)c1c(-c2ccccc2)noc1C	i	17	11	0.8	1	0.7	-1.0	-2	17	.
O=C(CNC(=O)c1cccs1)NCC(=O)OCc1c(Cl)cccc1Cl	.	-3	7	4.5	14	?	-11	-8	3	-5
CC(Oc1ccccc1)C(=O)NNC(=O)c1ccccn1 (centres undefined)	i	-25	-50	-8.6	-13	0.7	2.5	-12	3	-4
COc1cc(C(=O)NCc2ccc(S(N)(=O)=O)cc2)ccc1OCC(=O)Nc1cccc(C(F)(F)F)c1	.	5	-1	1.6	.	-3.7	-0.9	1	-4	3
CC(CN(C)Cc1ccccc1)OC(=O)c1cccs1 (centres undefined)	.	.	.	.	-6	1.5	.	.	-1	4
N=c1c(S(=O)(=O)c2ccc(Cl)cc2)cc2c(=O)n3ccccc3nc2n1Cc1ccco1	i	2	2	14	-9	96*	-0.6	.	17	-27
Cc1ccccc1C(=O)/C=C1\NC(=O)CS1	.	.	.	.	-8	-2.4	.	7	1	.
CC(=O)N(c1ccccc1)C1CC(C)N(C(=O)c2ccccc2)c2ccccc21 (centres undefined)	i	-1	-1	0.2	35	3.8	7.3	-8	21	-3
CCOC(=O)Cc1csc(NC(=O)c2ccc3ccccc3n2)n1	i	2	3	0.6	-11	-2.6	0.4	.	-7	-1
C(=C\c1ccc(/C=C/c2ccccc2)nn1)/c1ccccc1	.	.	.	.	-2	0.8	.	-11	3	1
CC(C)=CCN1CCN(CCC2=C(C)CCCC2(C)C)CC1CCO (centres undefined)	i	-4	1	0.2	1	-3.3	3.9	-7	18	6
CCc1cc(=O)[nH]c(SCC(=O)NCc2ccc3c(c2)OCO3)n1	i	4	12	7.2	-3	?	-4.1	-7	5	.
CC(CC(=O)O)CC(=O)Nc1ccc(Br)cc1 (centres undefined)	i	7	-7	-0.5	1	2.2	-2.7	6	-13	-7
C/C(=N\NC(=O)c1ccc2nc[nH]c2c1)c1ccc([N+](=O)[O-])cc1	.	.	.	.	8	0.6	.	.	-20	1
O=C1/C(=C/c2ccccc2)NC(=S)N1C(c1ccccc1)c1ccccc1	.	8	10	0.7	6	1.1	.	-9	10	1
COc1ccc(O)c(-c2[nH]ncc2C(=O)c2ccccc2C)c1	.	.	.	.	.	-1.4	.	70	-9	-2
CC1CCN(S(=O)(=O)c2ccc(C(=O)NC3CCS(=O)(=O)C3)cc2)CC1 (centres undefined)	i	7	11	-0.5	4	1.5	-1.6	-5	1	-3
O=C(Nc1c(F)cc(F)cc1Br)c1cccnc1	i	12	7	-16	6	?	5.1	0	-7	1
CN1CCN(C(=O)NC2CCCN2S(=O)(=O)c2ccc(Cl)cc2)CC1 (centres undefined)	.	.	.	.	0	3.6	.	-5	-1	-6
COc1ccc(C(=O)NNC(=O)CSc2nc(C(C)C)nc3ccccc23)cc1	i	.	.	.	33	-0.2	3.0	-5	10	4
CN(C(=O)CSc1nnc(C2CC2)n1C1CC1)C1(C#N)CCCCC1	i	0	4	-1.3	.	.	-0.4	-2	.	0
O=C(Nc1ccc(-n2ccnc2P(=O)(O)c2ccccc2)cc1)c1ccccc1Cl	.	.	.	.	4	-5.0	.	-10	-19	-7
COC(=O)C(O)(CC(=O)Nc1ccc(Cl)cc1Cl)C(F)(F)F (centres undefined)	i	9	9	6.8	-2	0.5	-17	-4	-12	-4
O=C1c2cccnc2C(=O)N1Cc1ccccc1	i	4	11	-0.4	5	-0.7	-15	-6	-16	-3
COC(=O)C1=NNC2C(=O)N(C3CCCCC3)C(=O)C12 (centres undefined)	i	11	2	2.1	-3	0.8	3.6	3	-9	-5
CCOC(=O)C1CCCN(C(=O)c2cccc(N3C(=O)c4ccccc4C3=O)c2)C1 (centres undefined)	i	5	4	1.3	.	.	0.7	4	.	-7
O=C(NCc1ccc(Cl)cc1)c1csc(-c2cccnc2)n1	i	-37*	-13*	0.0*	-1	8.7	.	-3	5	.
Cc1nc2scc(C)n2c(=O)c1S(=O)(=O)N1CCN(c2ccccc2F)CC1	i	-2	-8	2.1	2	4.0	6.9	0	-6	1
COc1cc2nc(C3CC3)n(NC(=O)c3ccc(Cl)cc3)c(=O)c2cc1OC	.	.	.	.	16	.	.	-8	-4	-5
CSc1ccccc1NC(=O)CN(C1CCCCC1)S(C)(=O)=O	.	.	.	.	7	-2.8	.	-6	5	.
C/C(NCCN1CCOCC1)=C(\C#N)C(N)=O	.	.	.	.	4	?	.	-7	2	-8
CC(C)CC(=O)NC(=S)Nc1ccc(N2CCOCC2)cc1	i	0	0	-1.4	0	1.8	1.7	40	5	4
Cc1c(C(=O)NC2CC2)oc2ccc(S(=O)(=O)N3CCCCCC3)cc12	.	.	.	.	12	0.1	.	-4	-8	.
Cc1ccc(C)c(N2CCN(C(=O)CN(C)S(=O)(=O)c3ccc4c(c3)CCC(=O)N4)CC2)c1	i	-5	-13	14	38	-4.7	8.2	-1	12	.
CC(C)(C)C(=O)Nc1sc2c(c1C#N)CCCCC2	.	.	.	.	-26	-4.4	.	-5	28	-2
CC1(C)C(=O)Nc2ccccc2N1C(=O)COc1cccnc1[N+](=O)[O-]	i	5	5	0.3	-2	6.6	9.7	.	-5	-5
N#CCCn1ncc2ccccc21	.	.	.	.	13	-0.9	.	-11	1	2

# Other results follow:
SMILES	FGF22 binding	rRNA inh HTS	rRNA inh HTS OD600	rRNA inh HTS RFP	Calb FLC	RanGTP-Impb inh	MLL AF4-AF9 inh	ALR inh	T cruzi repl	Beta cell apopt
FC(F)Sc1ccc(-n2cc(-c3ccc(Cl)cc3)[n+]3c2CCC3)cc1	.	.	.	.	-23	1.4	.	-4	2	12
O=C1COc2ccc(C(=O)COC(=O)c3ncc(Cl)c(Cl)c3Cl)cc2N1	i	4	6	-0.8	.	2.5	-3.1	-4	-10	-1
Cc1cnc(CNC(=O)CC2C(=O)NCCN2Cc2cccc(F)c2F)cn1 (centres undefined)	i	17	1	0.2	-3	-1.0	-1.6	1	-17	2
COC(=O)C1(C)NC(c2ccccc2C)C2C(=O)N(c3ccc(F)cc3)C(=O)C21 (centres undefined)	i	8	10	-2.1	0	0.9	-4.9	-1	-9	-7
CC(C)CC(=O)n1sc(NC(=O)c2ccccc2)nc1=O	+	-4	-6	0.8	-10	-0.2	-34	28	-4	-7
CC(CO)(CO)NC(=O)c1ccc(=O)[nH]n1	.	1	3	-3.2	-1	-0.6	-1.6	-27	-2	-7
Fc1ccc(CSc2ccc(-c3ccc4c(c3)OCO4)nn2)cc1	.	.	.	.	-24	-0.9	.	2	-2	-2
CC(=O)NCCCC(=O)NNC1CC(=O)N(c2cccc(Cl)c2)C1=O (centres undefined)	i	18	2	1.6	-15	0.4	0.7	34	-1	-3
O=C(Nc1ccc2c(c1)OCCO2)N1CCN(Cc2ccccc2)CC1	i	4	9	1.5	-4	4.0	1.4	-14	-14	1
O=C(Nc1nc(-c2ccccn2)cs1)c1ccc([N+](=O)[O-])o1	i	-11	4	-1.5	3	3.2	-10	-19	47	90*

# This is a subset; the hit share may differ from the screen's.
